Screening results deposited in PubChem BioAssay by National Center for Advancing Translational Sciences (NCATS).
CtBP-E1A inh = blocks the CtBP interaction with E1A; AID 651724; activity change, % (concentration not given with the values); AlphaScreen GST-E1A/His-CtBP binding, 1536-well; hits give low values; control for the full effect not named in the record; 0.49% of 340,000 active; in the data active means activity change below about -65%; inconclusive means about -30% to -65%; inactive means above about -30%; further: on the % scale 0 is the no-effect control and ±100 the full control effect
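Steps: dispense buffer (Tris pH 8.0, NaCl 300 mM, TCEP 1 mM, BSA, Tween 20); add 5X protein mix (GST-E1A, His-CtBP, 125 nM each); pin 23 nL compound; 2 h at 37 °C, dark; add 5X beads (50 ug/mL); 1 h; read.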
Six1-Eya2 inh = Six1/Eya2 interaction inhibition; Q15475+O00167; AlphaScreen GST-Six1/His-Eya2 binding, biochemical; hits give low values; control for the full effect not named in the record; activity change, % (test concentration not listed); 0.56% of 360,000 active; in the data active = activity change below about -65%; inconclusive = about -30% to -65%; inactive = above about -30%; further: on the % scale 0 is the no-effect control and ±100 the full control effect; compound concentration not given in the record
Target sequence (O00167 whole entry, looked up): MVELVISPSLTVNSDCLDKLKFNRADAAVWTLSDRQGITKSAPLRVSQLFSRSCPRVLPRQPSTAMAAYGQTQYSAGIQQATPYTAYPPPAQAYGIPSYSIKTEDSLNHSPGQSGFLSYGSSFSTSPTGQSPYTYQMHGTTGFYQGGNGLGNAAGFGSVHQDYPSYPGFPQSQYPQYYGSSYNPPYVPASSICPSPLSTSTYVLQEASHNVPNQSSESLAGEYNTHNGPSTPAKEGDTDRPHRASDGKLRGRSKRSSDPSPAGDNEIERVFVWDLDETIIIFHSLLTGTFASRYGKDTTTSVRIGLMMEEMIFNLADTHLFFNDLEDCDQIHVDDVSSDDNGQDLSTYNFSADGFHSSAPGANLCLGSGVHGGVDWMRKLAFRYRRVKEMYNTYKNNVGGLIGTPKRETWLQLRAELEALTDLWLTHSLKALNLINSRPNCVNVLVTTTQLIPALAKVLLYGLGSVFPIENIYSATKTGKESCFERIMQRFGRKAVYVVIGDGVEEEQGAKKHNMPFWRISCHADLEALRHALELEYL
Target sequence (Q15475 whole entry, looked up): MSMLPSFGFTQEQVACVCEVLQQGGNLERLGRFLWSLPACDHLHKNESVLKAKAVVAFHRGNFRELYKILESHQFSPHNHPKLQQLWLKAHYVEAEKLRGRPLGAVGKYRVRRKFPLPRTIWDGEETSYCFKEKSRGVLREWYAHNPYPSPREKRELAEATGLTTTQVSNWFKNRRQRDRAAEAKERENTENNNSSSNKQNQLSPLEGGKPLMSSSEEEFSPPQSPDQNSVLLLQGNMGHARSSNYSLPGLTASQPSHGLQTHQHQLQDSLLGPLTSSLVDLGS
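Compounds are tested against tagged Six1 and Eya2 proteins bridged by glutathione donor and nickel acceptor beads; after a one-hour incubation at 37 °C without light, AlphaScreen emission is recorded.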
D2 ag = activates the human D2 dopamine receptor | 0.084% of 360,000 active | P14416 | activation, % (no concentration beside the values) | DiscoveRx PathHunter D2 beta-arrestin, luminescence, 90 min; 100% = 57 uM dopamine signal; in the data active = activation above about 40%; inconclusive = about 15% to 40%; inactive = below about 15%; further: compound concentration not given in the record; the text of the record calls up to 30% inactive
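Agonist mode: compounds alone added to overnight-plated D2 PathHunter cells for 90 min at 37 C, with 57 uM final dopamine (EC100) defining full response. Beta-arrestin recruitment detected by chemiluminescent reagent, read after 1 h at ambient temperature.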
PINK1 modulator = PINK1 expression modulation | AID 624263 | 0.2% of 410,000 active | Potency, µM (doses to about 76.6 µM), without a hit: at the highest dose activation (PINK1 increase), usual class: activators | PINK1 immunofluorescence, high-content cytometry, 24 h; active = well fitted activation curve with a large enough effect; inconclusive = small, poorly fitted or top-dose-only effect; inactive = flat fitted curve, though single readings scatter; cell line not stated here;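 further: potency means the concentration at half of the fitted maximal effect; % of control where 0% means no effect; nearly all actives have a fitted effect of over 65% in size; a mitochondrial uncoupler was the plate control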
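Fluorescence from anti-PINK1 antibody, together with nuclear and cell stains, was scanned on a laser-scanning cytometer. Before staining, stable-line cells were incubated 24 hours with compounds at 5 concentrations; primary antibody 12 h at 10 degrees C.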
D2 potentiator = potentiates the human D2 dopamine receptor allosterically. potentiation, % (concentration not given with the values). P14416. 0.23% of 360,000 active. AID 624464. DiscoveRx D2 beta-arrestin cells, luminescence, 90 min; 100% = 57 uM dopamine signal; active = potentiation of 50% or more; inconclusive = 30% to 50%; inactive = 30% or less;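 further: compound concentration not given in the record; tested on top of an EC20 dose of dopamine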
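PathHunter beta-arrestin assay in DiscoveRx D2 cells. Compounds were added with an EC20 of dopamine (50 nM final) for 90 min at 37 deg C. Luminescence was read 1 h after detection reagent, with 57 uM dopamine as the EC100 control.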
TRPML1 ag = agonists of human TRPML1 channel. Q9GZU1. TRPML1-expressing cells, Ca2+ dye fluorescence, FDSS; host cell line not named in the record; reference of the full effect not given here. activation, % (no concentration beside the values). 0.12% of 410,000 active. AID 624414; in the data active = activation above about 50%; inconclusive = about 30% to 50%; inactive = below about 30%; further: 0% is about no effect; the text of the record puts the active cut at 80%
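Agonist activity was taken from a 110 s kinetic Ca2+ dye read on the FDSS after pinning compounds onto TRPML1-DL cells. The cells were seeded at 1,500/well with Tet inducer, incubated about 16 h, then dye-loaded at room temperature.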
The depositor's hits bear a star; ? = inconclusive; . = not tested or not shown; & = joins results of further samples; [ ] = another dose, or the depositor's remark.

The first 4 records, ahead of the listing:
SMILES	CtBP-E1A inh	Six1-Eya2 inh	D2 ag	PINK1 modulator	D2 potentiator	TRPML1 ag
O=C(Oc1ccc2c3c(c(=O)oc2c1)CCC3)c1ccco1	-6	-23	-2.1	.	-23	0.4
CNS(=O)(=O)c1cccc(C(=O)OCC(=O)N2CCc3ccccc3C2)c1	-5	5	2.8	-1.9%	3	0.1
Cc1ccc(-c2nnc(N3CCN(S(C)(=O)=O)CC3)c3ccccc23)cc1	-3	0	-2.5	-1.5%	-18	0.0
CCOC(=O)/C(C(=O)Nc1ccccc1Cl)=C1/NC(C)(C)Cc2ccccc21	19	-3	1.4	10%[38.3 µM]	-17	6.2

Results, repeating the preview:
SMILES	CtBP-E1A inh	Six1-Eya2 inh	D2 ag	PINK1 modulator	D2 potentiator	TRPML1 ag
O=C(Oc1ccc2c3c(c(=O)oc2c1)CCC3)c1ccco1	-6	-23	-2.1	.	-23	0.4
CNS(=O)(=O)c1cccc(C(=O)OCC(=O)N2CCc3ccccc3C2)c1	-5	5	2.8	-1.9%	3	0.1
Cc1ccc(-c2nnc(N3CCN(S(C)(=O)=O)CC3)c3ccccc23)cc1	-3	0	-2.5	-1.5%	-18	0.0
CCOC(=O)/C(C(=O)Nc1ccccc1Cl)=C1/NC(C)(C)Cc2ccccc21	19	-3	1.4	10%[38.3 µM]	-17	6.2
CCOC(=O)N1CCN(C(=O)CCSc2ccc(Cl)cc2)CC1	-3	4	-0.5	-2.0%	-1	0.5
CN(C)Cc1c(O)ccc2c(=O)c(-c3ccc(Cl)cc3)coc12	6	-4	-3.7	0.2%	-8	-0.4
COc1ccc(NS(=O)(=O)c2cc3c4c(c2)C(C)C(=O)N4CCC3)cc1 (stereo not drawn)	-1	1	0.1	-1.1%	2	-0.4
CC(C)CNC(=S)N1CCC(C(=O)c2ccc(F)cc2)CC1	6	-5	-0.5	1.9%	1	0.3
CCc1ccc2[nH]c3nc(N/N=C/c4cccc(O)c4)nnc3c2c1	1	-2	-2.4	-0.5%	0	0.1
COc1ccc(OCCCC(=O)Nc2nnc(C3CCCO3)s2)cc1 (stereo not drawn)	1	2	0.8	0.1%	8	0.3
NS(=O)(=O)c1ccc(NC(=S)NCc2ccccc2Cl)cc1	0	4	1.7	1.5%	2	1.5
O=C1NCCc2onc(-c3ccc(Br)cc3)c21	-13	11	6.2	-1.0%	-4	0.0

Record cards, from the list above. Order of values: CtBP-E1A inh | Six1-Eya2 inh | D2 ag | PINK1 modulator | D2 potentiator | TRPML1 ag
CCOC(=O)N1CCN(C(=O)CCSc2ccc(Cl)cc2)CC1 as listed: -3 | 4 | -0.5 | -2.0% | -1 | 0.5
NS(=O)(=O)c1ccc(NC(=S)NCc2ccccc2Cl)cc1 as listed: 0 | 4 | 1.7 | 1.5% | 2 | 1.5

Carrying on.
SMILES	CtBP-E1A inh	Six1-Eya2 inh	D2 ag	PINK1 modulator	D2 potentiator	TRPML1 ag
O=C(Nc1nnc(-c2ccc(F)cc2)o1)c1ccc(S(=O)(=O)N2CCOCC2)cc1	2	4	0.4	3.2%	8	-0.1
Cc1cc(C(=O)Nc2cccc3c2O[C@@H](CN(C)S(C)(=O)=O)[C@H](C)CN([C@@H](C)CO)C3=O)n(C)n1	10	-2	0.0	0.9%	-3	-0.6
CCN(CC(=O)Nc1c(F)cccc1F)C(=O)CN1c2cccc3cccc(c23)S1(=O)=O	4	-4	-1.6	-3.4%	-66	0.6
COc1cc(NC(=S)NC(C)=O)ccc1NC(=O)C(C)C	4	4	-2.5	5.5%[38.3 µM]	-5	0.2
CSc1ccc(CN2C(=O)NC3(CCCCCCC3)C2=O)cc1	.	-7	-0.7	0.4%	-11	0.5
CCOC(=O)C1CCN(CC(=O)Nc2ccc(OC)c(S(=O)(=O)N3CCCCC3)c2)CC1	0	22	-0.2	3.9%	-40	1.1
Cc1ccc(-n2nc3c(c2NC(=O)c2ccccc2)CS(=O)(=O)C3)cc1C	3	-1	-2.3	-1.2%	-18	2.1
CC1=CCC2C(=O)N(c3ccc(C(=O)N4CCCCCC4)cc3)C(=O)C2C1 (stereo not drawn)	-4	1	0.9	-0.7%	-1	3.0
O=C(CN1CCN(S(=O)(=O)c2ccc(Cl)c(Cl)c2)CC1)N1CCCCC1	4	1	3.3	2.3%	13	-0.1
O=C(c1ccncc1)N1CCCC(N2CCN(c3cccc(C(F)(F)F)c3)CC2)C1 (stereo not drawn)	1	10	1.4	2.1%	-13	-0.4
Cc1nc(C(=O)N2CCC(n3nccc3NC(=O)Nc3ccccc3Cl)CC2)cs1	-1	2	-3.2	1.1%	-5	-0.7
CC(=O)c1ccc(NC(=S)NC(C)c2ccc(Cl)cc2Cl)cc1 (stereo not drawn)	-7	-11	-0.3	?	-1	11
N#Cc1cccc(Cn2cc(C(F)(F)F)ccc2=O)c1	2	6	-1.2	0.6%	-1	-0.2
CCNc1nc(NCC)n2c(SCC(=O)c3ccccc3Cl)nnc2n1	9	-1	2.3	-0.5%	-2	0.1
CC(=O)c1ccc(OCc2cc(C(=O)N3CC4C[C@@H]5CC3C[C@H](C4)C5)no2)cc1	-4	-10	0.9	3.1%	4	1.1
Cc1cc2oc(=O)cc(-c3ccccc3)c2c(C)c1-c1ccc(C(F)(F)F)cc1	-13	0	-1.1	1.0%	0	-0.3
Cc1ccc(C(=O)N/C(=C/c2cccnc2)C(=O)O)cc1	13	6	?	-4.6%	-12	-0.4
COC(=O)c1cc(-c2c(C)oc3cc(O)ccc3c2=O)c(C)o1	2	-1	-0.5	?	0	1.1
O=C(c1ccc2c(c1)OCO2)N1CCC2(CC1)Oc1ccc(F)cc1C(=O)C21CC(c2ccc(Cl)cc2)=NO1 (stereo not drawn)	5	1	-2.2	0.5%	-6	0.0
N#CC1=C(N)Oc2c(oc(CO)cc2=O)C1c1cccs1 (stereo not drawn)	-16	-5	-0.5	-2.3%	-6	0.6
CCc1ccc2c(c1)C(=O)C(=O)N2CCS(=O)(=O)c1ccccc1	.	6	-16	-1.8%	-28	0.2
Cc1c(Br)c([N+](=O)[O-])nn1CC(=O)c1ccccc1	0	4	-2.2	3.2%	-3	-0.8
O=C(O)c1ccc(N2C(=O)CSC2=S)cc1	2	-14	-8.4	1.5%	-18	0.7
O=C(NNC(=O)C1[C@H]2CCCC[C@@H]12)NC1CCCCC1 (stereo partly drawn)	.	4	2.5	-0.7%	-11	-0.1
Cc1ccc(C)c(N2CCN(S(=O)(=O)c3ccc4c(c3)NC(=O)CS4)CC2)c1	-13	-13	1.6	1.4%	2	1.4
Cc1ccc(-c2nn(-c3ccc(F)cc3)cc2C(=O)N2CCN(C3CCS(=O)(=O)C3)CC2)cc1 (stereo not drawn)	-3	8	-7.3	3.3%	-13	-0.3
NC(=O)c1nsc(C(=O)N(CC(=O)NCc2ccc3c(c2)OCO3)C2CCCCC2)c1N	25	7	-0.7	-1.6%&-1.4%	-7	1.1&0.0
CS(=O)(=O)N(CC(=O)Nc1ccc2c(c1)OCO2)c1ccc2c(c1)OCO2	-3	-2	-2.1	5.5%[38.3 µM]	-7	0.2
O=C(Nc1ccc(Cl)cc1)NC1CCCC1Cc1ccco1 (stereo not drawn)	-4	1	-2.8	4.6%	-25	-0.1
COc1cc(/C=C(\C#N)C(=O)N2CCCCC2)ccc1O	9	3	0.2	-0.4%	-6	-0.5
NC(=S)NN=Cc1cc(-c2cccc(N)c2)ccn1	-81*	-88*	-0.6	-0.6%	-7	-0.4
COc1ccccc1NC(=O)N1CCCC1C(=O)Nc1ccc(NC(C)=O)cc1 (stereo not drawn)	2	2	-0.9	-1.0%	-3	0.1
O=C(CSc1nnc(-c2n[nH]c3ccccc23)n1-c1ccccc1)Nc1ccccc1Cl	0	-15	2.3	-1.6%	6	2.3
Cc1c(Cl)cccc1NC(=S)Nn1cnnc1	0	0	-8.1	-1.7%	-7	-0.3
COc1ccc(NC(=O)c2sc3nc(C)nc(N4CCN(c5ccccn5)CC4)c3c2C)c(OC)c1	0	0	-1.8	0.9%	-6	105*
Cc1ccccc1OCC(=O)N/N=C1\SCC(=O)N1Cc1ccccc1	-4	-2	-1.5	0.4%	-23	3.0
COc1ccc(NC(=S)NC2CC3CCC2C3)c(OC)c1 (stereo not drawn)	-1	15	0.1	-0.7%	-13	1.2
Cc1cccc(NC(=O)CS(=O)(=O)c2cn(CC(=O)N3CCOCC3)c3ccccc23)c1	-6	9	6.5	2.8%	9	-0.3
CCc1c(C)sc(NC(=O)c2ccco2)c1C#N	-10	-13	0.5	0.0%	-9	0.7
COc1ccccc1-n1c(=O)[nH]c2c(C(N)=O)nc(C3CCCCC3)nc21	-23	2	-1.4	1.9%	-7	-0.3
CCC(Sc1nc2n[nH]c(C)c2c(=N)n1-c1cc(Cl)ccc1C)C(=O)N1CCOCC1 (stereo not drawn)	-2	6	-1.1	9.7%	23	1.5
Cc1ccc(C(=O)N2CCC(C)CC2)cc1S(=O)(=O)N1CCCCC1	10	0	0.6	2.0%	-4	0.3
CN(C)CC(C)(C)CNS(=O)(=O)CC12CCC(CC1=O)C2(C)C (stereo not drawn)	-9	2	-1.2	-3.0%	-4	0.6
O=C(CNc1ccc(Br)cc1)c1ccc(O)cc1	0	-1	-8.0	0.4%	-17	-0.7
CCN(CC(=O)NCc1ccc(F)cc1)CC(=O)Nc1cc(S(=O)(=O)N(C)C)ccc1C	2	3	3.4	-0.1%	-6	-0.3
CCOC(=O)N1CCC2(CC1)NCCc1c2[nH]c2ccccc12	3	6	0.1	1.3%	-14	0.2
C#Cc1ccc([C@@H]2C=C(C(=O)N3CCOCC3)O[C@H](OCCCCO)C2)cc1	3	0	-1.7	0.6%	-13	0.1
CC(=O)c1ccc(NC(=S)NC2CCCC(C)C2C)cc1 (stereo not drawn)	6	9	-2.8	5.1%	-3	0.5
CCOC(=O)c1sc2c(c1C)C(c1cccs1)C1=C(CCCC1=O)N2 (stereo not drawn)	26	17	0.2	2.2%	-11	4.4
O=C(COc1ccccc1[N+](=O)[O-])N/N=C/c1ccc(O)cc1	-18	8	13	-0.1%	72*	1.1
COc1ccc(C(=O)NC2CCSC2=O)cc1 (stereo not drawn)	51	31	-3.8	3.4%[38.3 µM]	-1	0.2
CN1OC[C@@H]2CN(C(=O)C(C)(C)C)[C@H](c3ccc(-c4cc5ccccc5o4)cc3)C[C@@H]21	-9	0	-3.6	7.7%	-3	-0.3
CN1CCc2c(sc3c2C(=O)NC(c2cccc(OC(=O)c4cccs4)c2)N3)C1 (stereo not drawn)	-15	-15	0.3	0.3%	-3	7.9
CCOC(=O)[C@@H]1[C@H]2COc3ccccc3[C@H]2N2C(=O)N(c3cccc(C)c3)C(=O)[C@]12C	-4	3	-5.6	-0.3%	-5	1.0
CC(Sc1nnc2ccccn12)C(=O)Nc1ccc(Cl)cn1 (stereo not drawn)	-23	2	-3.0	25%[38.3 µM]	-18	-0.1
CN1CCN(C(=O)c2sc(=S)n(-c3ccccc3)c2N)CC1	-3	5	-2.6	0.1%	-5	0.4
Cc1ccc(-n2ncc(C#N)c2/N=C/N2CCCCCC2)cc1	8	4	-4.4	3.3%	-9	0.5
C=CCOc1ccc(NC(=O)C(=O)NCCCn2ccnc2)cc1	3	1	-1.1	-10.0%[38.3 µM]	5	0.0
